From PubChem BioAssay
HCMV UL50-53 inh: inhibitors of HCMV UL50-UL53 interaction, biochemical, HTRF; normalized percent inhibition; inhibition, % (concentration not given with the values); hit rate 0.15% among 190,000;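 active means both replicates at 50% or more, plus weaker picks with an unusually low signal ratio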;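 further: stock transfer was 100 nL into about 20 µL; 0% = negative control wells and 100% = wells with untagged competitor protein; inactives centre near -12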
Sa growth inh: S. aureus growth inhibition at 42 and 30 °C, primary screen, LtaS inhibitor project, RN4220, two temperatures; OD600, 20 h, 42 °C; hits give low values; relative growth, % (no concentration beside the values); hit rate 0.53% among 170,000; AID 720641, 2013;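 active means growth at 42 °C up to 50% and 20 or more points under that at 30 °C, or under 10% at both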;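 further: 300 nL library stock went into each well; scaled to the means of positive and negative controls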
GIV Gai3 FP: inhibitors of GIV peptide binding to Galpha-i3, primary screen, biochemical, fluorescence polarization, FITC-GIV GBA peptide, rat Galphai3. 90 min; hits give low values; scaled: aluminum fluoride 0%, vehicle 100%. hit rate 0.42% among 210,000. percent of control (FP), % (test concentration not listed). Guanine nucleotide-binding protein G(i) subunit alpha-3 (Rattus norvegicus), P08753;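 active means replicate mean at 85% of control or lower, very high polarization wells dropped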;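 further: wells of about 15 µL received 100 nL stock; the first replicate is given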
Target sequence (P08753 whole entry, looked up): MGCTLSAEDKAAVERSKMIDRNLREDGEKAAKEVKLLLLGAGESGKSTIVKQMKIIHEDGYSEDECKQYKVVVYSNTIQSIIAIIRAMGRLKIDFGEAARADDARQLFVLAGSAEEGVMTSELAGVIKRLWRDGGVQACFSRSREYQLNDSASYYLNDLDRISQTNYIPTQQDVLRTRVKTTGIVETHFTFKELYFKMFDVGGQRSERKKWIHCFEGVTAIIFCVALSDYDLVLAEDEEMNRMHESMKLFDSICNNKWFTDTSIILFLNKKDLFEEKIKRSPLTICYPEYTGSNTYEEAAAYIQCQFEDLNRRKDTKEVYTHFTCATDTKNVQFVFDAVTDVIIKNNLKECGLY
Sa growth inh second temp: second read-out of Sa growth inh, no call of its own (marks repeat the call); relative growth, %; measured here: growth at 30 °C;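 optical density after 20 h as mean of two plates; 100% = untreated growth and lower means inhibition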
Numbers without * were called inactive; x = no result given; & = joins results of further samples.

Assay codes: A = HCMV UL50-53 inh; B = Sa growth inh; C = Sa growth inh second temp; D = GIV Gai3 FP
Cc1[nH]c(=O)[nH]c(=O)c1S(=O)(=O)N1c2ccccc2CC1C (stereo unspecified)
  A: x	B: 97	C: 21	D: -73*

COc1cccc(Nc2nc(=O)[nH]nc2C)c1
  A: x	B: 87	C: 88	D: 98

Cc1ccc(C)c(NC(=O)c2ccco2)c1
  A: -1	B: 112	C: 77	D: x

CS(=O)(=O)c1ccc2nc(NC(=O)c3ccccc3Br)sc2c1
  A: -8	B: 89	C: 75	D: x

CCOC(=O)c1c(NC(=O)CSc2cn(CCNC(=O)c3ccc(OC)cc3)c3ccccc23)sc2c1CCCC2
  A: -2	B: 97	C: 86	D: 99

CC1CCCC(NC(=O)C2c3ccccc3C(=O)N2CCc2ccccc2)C1C (stereo unspecified)
  A: x	B: 77	C: 72	D: 105

c1ccc(COc2ccc(Oc3ncccn3)cc2)cc1
  A: -2	B: 88	C: 103	D: x

COC(=O)C1CCN(c2ncnc3scc(-c4ccccc4)c23)CC1
  A: 8	B: 78	C: 97	D: x

CC(C)(C)CC(=O)NCCc1csc(-c2ccc(Cl)cc2)n1
  A: -22	B: x	C: x	D: 100

O=C(CSc1ncnc2c1sc1cccc(F)c12)NCc1cccnc1
  A: -33	B: x	C: x	D: 214

N#Cc1c(-n2ncnc2-c2ccc(Br)cc2)sc2c1CCCCC2
  A: -17	B: 103	C: 91	D: 109

O=C(Nc1ccccc1)C1Cc2cc(Cl)ccc2O1 (stereo unspecified)
  A: -26	B: 91	C: 87	D: x

Cc1noc(C)c1COC(=O)C(Cc1ccccc1)NC(=O)c1cccs1 (stereo unspecified)
  A: -8	B: 97	C: 91	D: x

COc1ccccc1NC(=O)c1cc2sc3ccccc3c2s1
  A: -13	B: x	C: x	D: 98

COc1ccc(CNC(=O)CN2CCN(S(=O)(=O)c3ccccc3)CC2)cc1
  A: -8	B: 98	C: 91	D: x

O=C(CSc1n[nH]c(-c2ccccc2)n1)N1CCN(c2ccccc2F)CC1
  A: x	B: 114	C: 95	D: 109

COc1cc(NC(C)C(=O)N2CCCCC2)cc(OC)c1 (stereo unspecified)
  A: -29	B: 73	C: 86	D: x

CCN1C(=O)/C(=C2\SC(=Nc3ccc(Cl)cc3)N(C)C2=O)c2ccccc21
  A: -14	B: 130	C: 101	D: 105

CC1CCCCC1NC(=O)CO/N=C/c1ccc2c(c1)OCO2 (stereo unspecified)
  A: -29	B: 84	C: 94	D: x

CCCSCCCNC(=O)Cn1c(=O)c(=O)n(Cc2ccc(Cl)cc2)c2ccccc21
  A: -19	B: x	C: x	D: 95

CN(C)c1ccc(CNc2ccc(CNc3ncn[nH]3)cc2)cc1
  A: -10	B: 100	C: 90	D: 102

O=C(Cc1n[nH]c(=O)c2ccccc12)Nc1cc(C(F)(F)F)ccc1N1CCCC1
  A: -4	B: 90	C: 94	D: x

O=C(c1ccc(Br)cc1)N1CCC2(CC1)Nc1cc(F)ccc1-n1cccc12
  A: -40	B: x	C: x	D: 109

COc1cc(C2NC(=O)NC(C)=C2C(=O)OCCc2ccccc2)ccc1OCc1ccccc1 (stereo unspecified)
  A: 3	B: x	C: x	D: 105

O=C1NC(=S)N(c2cccc(Cl)c2)C(=O)/C1=C/c1ccc(N2CCCCC2)o1
  A: -29	B: x	C: x	D: 219

Following part:
Assay codes: A = HCMV UL50-53 inh; B = Sa growth inh; C = Sa growth inh second temp; D = GIV Gai3 FP
CC12CN3CC(C)(CN(C1)C31C(=O)Nc3ccccc31)C2O (stereo unspecified)
  A: -13	B: 82	C: 105	D: 104

CC1=C/C(=N/Nc2nc3ccccc3[nH]2)CC(C)(C)C1
  A: -25	B: -0.4*	C: -0.7*	D: x

O=C(Nc1ccc(C(=O)OCc2cc(=O)n3nc(C4CC4)sc3n2)cc1)c1ccccc1
  A: x	B: 84	C: 77	D: 101

Fc1ccccc1N1CCN(Cc2nc(-c3ccccc3)no2)CC1
  A: -11	B: x	C: x	D: 100

COc1ccc(-c2cc3c(=O)[nH]nc(SCC(=O)Nc4ccc(C)c(Cl)c4)n3n2)cc1
  A: -19	B: x	C: x	D: 102

O=c1[nH]c(=O)c2c3c(sc2[nH]1)CCCC3
  A: -22	B: x	C: x	D: 104

Cc1ccc(C)c(C(=O)/C=C/C(=O)O)c1
  A: -26	B: x	C: x	D: 104

O=C(NCCn1c(-c2ccc(F)cc2)nc2cccnc21)NCc1ccc(F)cc1
  A: -10	B: x	C: x	D: 116

CCOc1ccc(C2C(=O)c3ccccc3C2=O)cc1
  A: -32	B: 105	C: 79	D: 97

COc1ccccc1/C=C/C(=O)O
  A: 7	B: 45	C: 15	D: x

COC(=O)CSCc1nc(-c2ccc(C(=O)OC)cc2)oc1C
  A: x	B: 116	C: 86	D: 105

CC1=NN(c2ccccc2)C(=O)C1=C(C)C
  A: x	B: 92	C: 69	D: 101

CCCCN1C(=O)c2[nH]nc(-c3ccccc3O)c2C1c1cccc(OCc2ccccc2)c1 (stereo unspecified)
  A: -10	B: 97	C: 80	D: 103

CC(C)CC(=O)Nc1ccccc1C(N)=O
  A: -11	B: 112	C: 102	D: 100

O=S(=O)(NCCc1ccccc1)c1ccc(N2CCCCS2(=O)=O)cc1
  A: x	B: 101	C: 84	D: 100

O=C(NCCc1csc(-c2ccc(C(F)(F)F)cc2)n1)c1ccc(F)c(F)c1
  A: x	B: 120	C: 97	D: 104

CC(C)c1cc2n(n1)CC(C)(C(=O)NC1CCCCC1)N(c1ccc(Cl)cc1)C2=O (stereo unspecified)
  A: -8	B: x	C: x	D: 96

NC(=O)C1CCN(C(=O)CCc2nc3sc4c(c3c(=O)[nH]2)CCCCC4)CC1
  A: -25	B: x	C: x	D: 104

Cc1ccc(-c2csc(NC3OC(=O)c4c#cccc43)n2)cc1 (stereo unspecified)
  A: 7	B: 79	C: 80	D: 106

CCN(CC)CCNC(=O)Cn1nc(C)c2c(C)n(-c3ccccc3)nc2c1=O
  A: x	B: 82	C: 91	D: 107

COCCn1c(N)c(C(=O)C(C)(C)C)sc1=S
  A: -81	B: 80	C: 79	D: x

CC(C)c1cc(-c2nc(-c3cccnc3)no2)n[nH]1
  A: -26	B: x	C: x	D: 105

Cc1ccccc1-c1nn2c(=O)cc(N3CCN(C(=O)Nc4ccc(Cl)cc4)CC3)nc2s1
  A: 12	B: x	C: x	D: 101

CCOc1ccc(Nc2cc(C(=O)NCc3ccccc3Cl)c3ccccc3n2)cc1
  A: -14	B: 110	C: 97	D: 99

COC(=O)c1c(C)[nH]c(C(=O)CSc2nnc3cc(C)c4ccccc4n23)c1C
  A: x	B: 107	C: 88	D: 106

(next part)
Assay codes: A = HCMV UL50-53 inh; B = Sa growth inh; C = Sa growth inh second temp; D = GIV Gai3 FP
COc1cccc(NC(=O)CN(C)C(C)C(=O)Nc2cc(Cl)ccc2OC)c1 (stereo unspecified)
  A: -10	B: 106	C: 80	D: x

Cc1cc(C)cc(OCCSc2nc(-c3ccc(C(C)(C)C)cc3)nc3cc(=O)[nH]n23)c1
  A: x	B: 99	C: 102	D: 97

Cc1nc2ccn(Cc3cccs3)c(=O)c2cc1C(=O)NCc1ccc(Cl)cc1
  A: x	B: 98	C: 58	D: 100

O=C(NCc1ccccc1Cl)C1CCN(S(=O)(=O)Cc2ccccc2)CC1
  A: -13	B: 123	C: 89	D: 104

CC(C)(C)c1ccc(OCC(=O)Nc2noc(-c3ccccc3)n2)cc1
  A: 6	B: x	C: x	D: 96

CCn1c(=O)cc(SCC(=O)N2CCC(C)CC2)c2ccccc21
  A: 7&-20	B: 100	C: 87	D: 102&97

COc1cc(OC)cc(-c2noc(CSc3ccc(-c4cccc(Br)c4)nn3)n2)c1
  A: -21	B: x	C: x	D: 112

O=c1ccc(-c2ccc3c(c2)OCO3)nn1Cc1nc(-c2ccc(F)c(Br)c2)no1
  A: 1	B: x	C: x	D: 111

O=C(NN(c1ccccc1)c1ccccc1)c1ccc(S(=O)(=O)N2CCOCC2)cc1
  A: -11	B: 82	C: 98	D: x

CCOc1ccccc1Nc1nnc(-c2cc3cc(Cl)ccc3oc2=O)s1
  A: x	B: 105	C: 93	D: 122

Cc1nn(C)c(Cl)c1S(N)(=O)=O
  A: -30	B: 91	C: 87	D: 106

CC(C)c1ccc(NC(=O)Cn2cnc3nc(N4CCCCC4)sc3c2=O)cc1
  A: -14	B: x	C: x	D: 103

COC(=O)c1ccc(CN2c3cccc4cccc(c34)S2(=O)=O)o1
  A: -47	B: 101	C: 95	D: x

Cc1c(NC(=O)C2CCCCN2S(=O)(=O)c2ccc(Cl)cc2)c(=O)n(-c2ccccc2)n1C (stereo unspecified)
  A: -16	B: 94	C: 89	D: 101

CCCCSc1nnc2c(n1)OC(/C=C/c1ccccc1[N+](=O)[O-])Nc1ccccc1-2 (stereo unspecified)
  A: -31	B: x	C: x	D: 80*

N/N=c1\nc2[nH]n(-c3ccccc3)c(=O)c2c2n1CCC2
  A: -8	B: 102	C: 96	D: x

CC(=O)NC(=O)c1cc2cc(Br)ccc2oc1=Nc1ccc(C#N)cc1
  A: -12	B: x	C: x	D: 100

CC1=CC(=O)C(C(=O)/C=C/c2ccc(Cl)cc2)C(=O)O1 (stereo unspecified)
  A: -30	B: 114	C: 74	D: x

Cc1cc(C(=O)COc2ccccc2C(N)=O)c(C)n1C1CC1
  A: 3	B: 104	C: 81	D: x

CCOC(=O)c1c(C)[nH]c(C)c1S(=O)(=O)N1CCN(c2cc(Cl)ccc2C)CC1
  A: x	B: 112	C: 92	D: 103

CN(CC(=O)Nc1ccc2c(c1)OCO2)S(=O)(=O)c1ccc2c(c1)c(=O)n(C)c(=O)n2C
  A: -1	B: 110	C: 88	D: 105

COc1ccccc1-c1nc(SCC(=O)c2ccc(Cl)cc2)n[nH]1
  A: 8	B: 103	C: 101	D: 106

CC(C)CC(=O)Nc1ccc(S(=O)(=O)NCc2ccco2)cc1
  A: 8	B: 50	C: 55	D: 98

COC(=O)c1ccccc1-c1ccccc1C(=O)OC
  A: -22	B: 97	C: 86	D: 103

CCCCSc1nnc2n(CCc3ccccc3)c(=O)c3sccc3n12
  A: -4	B: x	C: x	D: 99

New compounds follow
Assay codes: A = HCMV UL50-53 inh; B = Sa growth inh; C = Sa growth inh second temp; D = GIV Gai3 FP
CCOC(=O)c1c(N)cc2[nH]c(=S)[nH]c(=O)c2c1-c1ccccc1
  A: -93	B: 107	C: 96	D: x

CC1CN(c2nc(N3CCCC3)nc3ccccc23)CC(C)N1 (stereo unspecified)
  A: -7	B: 99	C: 97	D: 104

CCN1CCN(C(=O)C23CC4CC(C2)CC(c2ccc(C)cc2)(C4)C3)CC1
  A: 7	B: 136	C: 100	D: x

N#Cc1c(N)n(CCN2CCOCC2)c2nc3ccccc3nc12
  A: -67	B: 84	C: 93	D: x

Oc1ccccc1C1=CC(c2ccc(Br)cc2)n2ncnc2N1 (stereo unspecified)
  A: -64	B: 97	C: 65	D: 105

O=c1cc(O)c2sc(Nc3ccccc3)nc2[nH]1
  A: -19	B: 108	C: 79	D: x

N#Cc1ccccc1S(=O)(=O)N1CCOCC1
  A: 2	B: 99	C: 102	D: 113

Cc1nn(Cc2ccccc2)c(Cl)c1/C=C/C(=O)OCC(=O)N1CCN(C(=O)c2ccco2)CC1
  A: -14	B: 116	C: 75	D: x

COC(=O)/C=C1/OC(c2ccccc2)=CC1=O
  A: 12	B: 114	C: 100	D: 197

Cc1cc(C)c2c(n1)SCCN2C(=O)Nc1ccc(F)cc1
  A: -10	B: x	C: x	D: 107

Cc1ccc(Cl)cc1NC(=O)N1CCC(CN2CCOCC2)CC1
  A: x	B: 87	C: 84	D: 101

OC(COc1ccc(Nc2ccccc2)cc1)COc1ccc(Nc2ccccc2)cc1
  A: -3	B: 115	C: 103	D: x

COc1ccc(C(=O)Nc2ccccc2C(=O)Nc2ccccn2)cc1
  A: 1	B: 113	C: 84	D: 107

CC1CCCCN1CCCNC(=O)Cn1ncc2c3ccccc3n(C)c2c1=O (stereo unspecified)
  A: -3	B: 110	C: 91	D: 106

c1ccc(-c2ncc(-c3ccn[nH]3)s2)cc1
  A: -40&-58	B: x	C: x	D: 105

CCOc1cc(C(=O)Nc2nnc(-c3cccc([N+](=O)[O-])c3)s2)cc(OCC)c1OCC
  A: -65	B: x	C: x	D: 104

COc1ccc(-c2ccc(NS(=O)(=O)c3ccccc3)cc2)nn1
  A: x	B: 88	C: 94	D: 99

CCCNC(=O)C1CCN(c2nn3cc(-c4ccc(OC)cc4)nc3s2)CC1
  A: -12	B: 100	C: 94	D: 109

O=C(Nc1cccc(F)c1)N1CCOCC1
  A: -16	B: 58	C: 53	D: 102

Cc1oc2c(c1C(=O)Nc1ccc(OC(F)(F)F)cc1)C1=NCCN1C=N2
  A: x	B: 84	C: 94	D: 94

NC(=S)NN=C1c2cc(S(=O)(=O)N3CCOCC3)ccc2-c2ccc(S(=O)(=O)N3CCOCC3)cc21
  A: -83	B: 88	C: 107	D: 90

c1ccc(-c2noc(-c3ccccc3)n2)cc1
  A: 5	B: 96	C: 97	D: 106

Some of the entries so far, bar-delimited.
compound | HCMV UL50-53 inh | Sa growth inh | Sa growth inh second temp | GIV Gai3 FP
CCN1CCN(C(=O)C23CC4CC(C2)CC(c2ccc(C)cc2)(C4)C3)CC1 | 7 | 136 | 100 | x
N#Cc1c(N)n(CCN2CCOCC2)c2nc3ccccc3nc12 | -67 | 84 | 93 | x
